# Source: PubChem
# Vaccinia inh: Vaccinia orthopox stage-specific inhibition | Vaccinia-infected cells, mCherry/Venus stage reporter fluorescence; active compounds read low; some inactives read as strong as hits | activity change (mCherry), % (no concentration beside the values) | 89,000 tested, 0.01% active | AID 1053133;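 active = mCherry past -33% and 40 or more points under the early reporter, replicates agreeing; inconclusive = past -33% without that gap or agreement; tested in A549 cells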;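 note: scaled between vehicle wells and reference inhibitor wells; 23 nL library stock went into each well; one replicate is shown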
# Vaccinia inh Venus: also measured in Vaccinia inh; calls as there; activity change (Venus), %; measured here: Venus reporter, other viral stage;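 negative = less Venus signal; first of two replicates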
# The depositor's hits bear a star; ? = inconclusive; / = no result given; & = joins results of further samples.
# Values in the order: Vaccinia inh Venus | Vaccinia inh
- C[C@@H]1CN([C@@H](C)CO)C(=O)c2c(c3ccccc3n2C)-c2ccccc2CO[C@H]1CN(C)C(=O)Nc1ccc(F)cc1
  / | ?
- COc1ccc(S(=O)(=O)N(C)C[C@H]2OCCCC[C@H](C)Oc3ccc(NC(=O)CCC(F)(F)F)cc3C(=O)N([C@@H](C)CO)C[C@@H]2C)cc1
  -25 | -19
- C[C@H]1CN([C@@H](C)CO)C(=O)c2cc(NC(=O)CCN3CCOCC3)ccc2O[C@@H]1CN(C)C
  -8 | -2
- CO[C@@H]1CN(C)C(=O)c2cc(NC(=O)c3cnccn3)ccc2OC[C@H](C)N(C(C)=O)C[C@H]1C
  7 | 13
- C[C@H]1CN([C@@H](C)CO)C(=O)Cc2cc(NC(=O)C3CC3)ccc2O[C@@H]1CN(C)Cc1ccncc1
  5 | 11
- C[C@H](NC(=O)C[C@@H]1CC[C@@H]2[C@@H](COc3ccc(NC(=O)C4CCOCC4)cc3C(=O)N2C)O1)c1ccccc1
  10 | 11
- C[C@@H]1CN([C@@H](C)CO)C(=O)c2cc(C3=CCCCC3)cnc2O[C@H]1CN(C)CC1CCOCC1
  -12 | -16
- C[C@@H]1CN([C@H](C)CO)C(=O)Cc2cc(NC(=O)Nc3cccc4ccccc34)ccc2O[C@@H]1CN(C)CC1CC1
  5 | 3
- C[C@@H]1CN([C@H](C)CO)C(=O)c2c(c3ccccc3n2C)-c2ccccc2CO[C@H]1CN(C)Cc1ccc2c(c1)OCO2
  / | ?
- C[C@@H]1CCCCO[C@H](CN(C)C(=O)c2ccncc2)[C@@H](C)CN([C@@H](C)CO)C(=O)c2cc(NC(=O)Cc3ccccc3)ccc2O1
  12 | 24
- Cc1noc(C)c1NC(=O)N(C)C[C@@H]1Oc2c(NS(=O)(=O)c3ccccc3)cccc2C(=O)N([C@@H](C)CO)C[C@@H]1C
  31 | 26
- COc1ccc(CN(C)C[C@@H]2Oc3c(NC(=O)Nc4ccc(OC)cc4)cccc3C(=O)N([C@@H](C)CO)C[C@@H]2C)cc1
  4 | -4
- C[C@@H]1CN([C@@H](C)CO)C(=O)c2cc(C3=CCCC3)cnc2O[C@@H]1CN(C)C(=O)NC1CCCC1
  4 | -2
- COc1ccc(-c2cn(CC[C@@H]3CC[C@H](NC(=O)NC(C)C)[C@H](CO)O3)nn2)cc1
  -9 | -5
- Cc1ccc(S(=O)(=O)N[C@@H]2CC[C@H](CCn3cc(C(C)C)nn3)O[C@@H]2CO)cc1
  -14 | -16
- O=C(C[C@H]1C=C[C@@H](NC(=O)Nc2ccccc2F)[C@@H](CO)O1)NCc1ccccc1
  11 | 14
- CN(C)CCCNC(=O)C[C@@H]1CC[C@H]2[C@@H](COC[C@H](O)CN2CC2CCCCC2)O1
  -9 | -15
- Cc1ccc(S(=O)(=O)N(C)C[C@H]2Oc3ncc(-c4ccccc4)cc3C(=O)N([C@@H](C)CO)C[C@H]2C)cc1
  -10 | -15
- CC(=O)N(C)C[C@H]1Oc2cc(-c3ccc(C)cc3)ccc2S(=O)(=O)N([C@@H](C)CO)C[C@H]1C
  -9 | -2
- O=C(C[C@@H]1CC[C@H](NC(=O)c2cccnc2)[C@@H](CO)O1)NCc1ccc(Cl)c(Cl)c1
  10 | -5
- C[C@@H]1CN([C@@H](C)CO)C(=O)Cc2cc(NC(=O)NC3CCCCC3)ccc2O[C@H]1CN(C)Cc1ccc(C(=O)O)cc1
  1 | 6
- C[C@@H]1CN([C@@H](C)CO)C(=O)c2cccc(NC(=O)c3cnccn3)c2O[C@@H]1CN(C)S(=O)(=O)c1cn(C)cn1
  3 | 13
- O=C(C[C@@H]1CC[C@@H]2[C@H](COC[C@H](O)CN2C(=O)c2ccccc2)O1)NC1Cc2ccccc2C1
  11 | 24
- O=C(Nc1cccc(Cl)c1)N[C@H]1CC[C@@H](CCNC(=O)C2CCCCC2)O[C@H]1CO
  -16 | -16
- C[C@@H]1CN([C@@H](C)CO)C(=O)c2cc(-c3ccncc3)cnc2O[C@H]1CN(C)C(=O)C1CCCCC1
  10 | 13
- CC(=O)N(C)C[C@@H]1[C@@H](c2ccc(-c3cccnc3)cc2)[C@H](CO)N1C(=O)C1CC1
  -3 | 5
- COc1ccc(NC(=O)N(C)C[C@H]2OCCCC[C@H](C)Oc3ccc(NC(=O)NC(C)C)cc3C(=O)N([C@@H](C)CO)C[C@H]2C)cc1
  8 | 11
- CS(=O)(=O)N1[C@H](C#N)[C@@H](c2ccc(C#CC3CCCCC3)cc2)[C@H]1CO
  -16 | -12
- C[C@@H]1CN([C@@H](C)CO)C(=O)Cc2cc(NC(=O)Nc3ccc4c(c3)OCO4)ccc2O[C@H]1CN(C)Cc1ccc2c(c1)OCO2
  -20 | -33
- C[C@H]1CN([C@@H](C)CO)C(=O)Cc2cc(NC(=O)Cn3cnnn3)ccc2O[C@H]1CN(C)Cc1ccc(Cl)c(Cl)c1
  -10 | -7
- CO[C@H]1CN(C)C(=O)c2ccc(NC(=O)NC(C)C)cc2OC[C@@H](C)NC[C@H]1C
  9 | 9
- C[C@H]1CCCCO[C@@H](CN(C)C(=O)Nc2ccc(C(F)(F)F)cc2)[C@@H](C)CN([C@@H](C)CO)C(=O)c2cc(NC(=O)NC3CCCCC3)ccc2O1
  -1 | -3
- O=C(C1CCOCC1)N1CC2(C1)[C@@H](c1ccccc1)[C@@H](CO)N2Cc1ccccc1F
  -5 | 1
- CCCC#Cc1ccc2c(c1)O[C@@H](CN(C)S(C)(=O)=O)[C@H](C)CN([C@@H](C)CO)S2(=O)=O
  -11 | -12
- COc1ccc(NC(=O)Nc2ccc3c(c2)C(=O)N([C@@H](C)CO)C[C@@H](C)[C@H](CN(C)C(=O)Nc2cccc4ccccc24)O3)cc1
  13 | 19
- C[C@@H]1CN([C@H](C)CO)C(=O)c2cc(C3=CCCC3)cnc2O[C@H]1CN(C)C(=O)C1CCOCC1
  28 | 37
- OC[C@@H]1[C@H](c2ccc(-c3cccc(F)c3)cc2)[C@@H]2CN(Cc3cncnc3)CCCCN12
  4 | 0
- C[C@@H]1CN([C@@H](C)CO)C(=O)c2cccc(N(C)C)c2O[C@@H]1CN(C)Cc1ccc(C(=O)Nc2ccccc2N)cc1
  -8 | -23
- COC(=O)C[C@H]1C[C@H]2c3cc(NC(=O)NC4CCCCC4)ccc3O[C@H]2[C@H](CO)O1
  1 | 7
- CCC(=O)N1[C@H](CO)[C@H]2c3ccccc3N(C(=O)CC(F)(F)F)C[C@H]21
  2 | -1
- C[C@H](CO)N1C[C@H](C)[C@@H](CN(C)CC2CC2)Oc2ccc(NC(=O)Nc3ccc(C(F)(F)F)cc3)cc2CC1=O
  -13 | -18
- COc1cc2c(cc1OC)CN(C(=O)[C@H]1[C@@H]3C(=O)O[C@@H](c4ccccc4)[C@@H](c4ccccc4)N3[C@@H](c3ccc(O)cc3)[C@]13C(=O)Nc1ccccc13)CC2
  -16 | -17
- O=C(C[C@H]1C=C[C@@H](NC(=O)c2cccc(F)c2)[C@@H](CO)O1)NCCN1CCCC1
  12 | 13
- CCC(=O)N(C)C[C@@H]1Oc2ncc(C#CC3(O)CCCC3)cc2C(=O)N([C@H](C)CO)C[C@@H]1C
  7 | 13
- C[C@@H]1CN([C@@H](C)CO)C(=O)c2cc(C3=CCCCC3)cnc2O[C@@H]1CN(C)Cc1ccncc1
  -8 | -13
- CN1C(=O)c2cc(NC(=O)Nc3cccc(C#N)c3)ccc2OC[C@H]2O[C@@H](CC(=O)NCc3ccc(Cl)cc3)CC[C@@H]21
  1 | -2
- Cc1ccc(-c2cnc3c(c2)C(=O)N([C@H](C)CO)C[C@H](C)[C@H](CN(C)C(=O)c2cccc(F)c2)O3)cc1
  -14 | -14
- CC(=O)N(C)C[C@@H]1Oc2ncc(-c3ccc(C(=O)N(C)C)cc3)cc2C(=O)N([C@H](C)CO)C[C@H]1C
  5 | 17
- CC(C)NC(=O)N(C)C[C@@H]1OCCCC[C@H](C)Oc2ccc(NS(=O)(=O)c3cccs3)cc2C(=O)N([C@@H](C)CO)C[C@@H]1C
  14 | 25
- C[C@@H]1CN([C@@H](C)CO)C(=O)c2cc(C#CC3(O)CCCC3)cnc2O[C@@H]1CN(C)C(=O)Cc1ccncc1
  8 | 16
- COCC(=O)Nc1ccc2c(c1)C(=O)N(C)C[C@@H](OC)[C@H](C)CN(Cc1cncnc1)[C@@H](C)CO2
  -1 | 15
- CN1c2ccc(Br)cc2[C@@H]2[C@@H](CCN2C(=O)C2CCOCC2)[C@@H]1CO
  8 | 20
- CC(=O)n1cc([C@H]2C=C(C(=O)N3CCCCCCC3)O[C@@H](OCCCCO)C2)c2ccccc21
  2 | 16
- C[C@@H]1CN([C@H](C)CO)C(=O)c2cccc(NC(=O)c3ccncc3)c2O[C@H]1CN(C)C(=O)Nc1ccc2c(c1)OCO2
  5 | 0
- O=C(C[C@H]1C[C@@H]2c3cc(NC(=O)c4cccnc4)ccc3O[C@@H]2[C@H](CO)O1)NC1CCCCC1
  2 | -5
- CCNC(=O)Nc1ccc2c(c1)C(=O)N(C)[C@H]1CC[C@H](CC(=O)NCC3CCCCC3)O[C@H]1CO2
  4 | 12
- C[C@H](CO)N1C[C@H](C)[C@@H](CN(C)S(=O)(=O)c2ccc(Cl)cc2)Oc2ccc(NC(=O)C3CCCCC3)cc2CC1=O
  / | ?
- C[C@@H]1CN([C@@H](C)CO)C(=O)Cc2cc(NC(=O)Cc3cn(C)c4ccccc34)ccc2O[C@H]1CN(C)C(=O)Nc1ccccc1
  5 | 2
- CN(C)CC(=O)N1[C@H](C#N)[C@H](c2ccc(-c3ccc(C(=O)N(C)C)cc3)cc2)[C@H]1CO
  -5 | 10
- C[C@@H]1CN([C@H](C)CO)S(=O)(=O)c2ccc(C#Cc3ccc(F)cc3)cc2O[C@H]1CN(C)C(=O)CN(C)C
  / | ?

# Looked up above:
# Vaccinia inh result of COc1cc2c(cc1OC)CN(C(=O)[C@H]1[C@@H]3C(=O)O[C@@H](c4ccccc4)[C@@H](c4ccccc4)N3[C@@H](c3ccc(O)cc3)[C@]13C(=O)Nc1ccccc13)CC2 stands at -17
# Vaccinia inh result of COC(=O)C[C@H]1C[C@H]2c3cc(NC(=O)NC4CCCCC4)ccc3O[C@H]2[C@H](CO)O1 stands at 7

# Other records.
# Values in the order: Vaccinia inh Venus | Vaccinia inh
- Cc1cc(C(=O)Nc2cccc3c2O[C@@H](CN(C)Cc2ccc(C(=O)O)cc2)[C@H](C)CN([C@H](C)CO)C3=O)n(C)n1
  4 | 10
- COc1ccc(S(=O)(=O)N(C)C[C@@H]2OCCCC[C@@H](C)Oc3ccc(N(C)C)cc3C(=O)N([C@H](C)CO)C[C@H]2C)cc1
  -21 | -15
- Cc1ccc(-c2ccc(C3[C@H]4CNC[C@@H]3N4S(=O)(=O)c3cccc(C)c3)cc2)cc1 (stereo partly drawn)
  9&5 | 6&-1
- CCCC#Cc1ccc([C@H]2[C@H](CO)N3CCCCN(S(=O)(=O)c4ccccc4F)C[C@@H]23)cc1
  -8 | 6
- Cn1cnc(CCNC(=O)C[C@@H]2CC[C@@H]3[C@H](COC[C@H](O)CN3C(=O)C3CC3)O2)c1
  6 | 2
- C[C@H](NC(=O)C[C@H]1C=C[C@H](NC(=O)C2CCOCC2)[C@H](CO)O1)c1ccccc1
  -4 | -7
- C[C@H](O)C#Cc1cnc2c(c1)C(=O)N([C@H](C)CO)C[C@H](C)[C@H](CN(C)C(=O)CN1CCOCC1)O2
  12 | 13
- O=C(C[C@@H]1C[C@@H]2c3cc(NC(=O)NC4CCCC4)ccc3O[C@@H]2[C@@H](CO)O1)NCC1CC1
  0 | 3
- O=C(C1CCCC1)N1CC(=O)N2[C@H](CO)[C@@H](c3ccc(C#Cc4cccc(F)c4)cc3)[C@H]2C1
  / | ?
- C[C@@H]1CCCCO[C@@H](CN(C)Cc2ccc(C(=O)O)cc2)[C@@H](C)CN([C@H](C)CO)C(=O)c2cc(NC(=O)Nc3cccc4ccccc34)ccc2O1
  17 | 22
- Cc1noc(C)c1NC(=O)N(C)C[C@@H]1Oc2c(NC(=O)Nc3ccc(F)cc3)cccc2C(=O)N([C@@H](C)CO)C[C@H]1C
  -1 | 3
- CN(C)CC(=O)N[C@@H]1C[C@@H]2O[C@H](CO)CC[C@@H]2O[C@@H]1CCc1ccc(C#Cc2ccccc2)cc1
  / | ?
- CO[C@@H]1CN(C)C(=O)c2ccc(NS(=O)(=O)c3ccc(Cl)cc3)cc2OC[C@H](C)NC[C@H]1C
  -4 | 3
- COc1ccccc1CNC(=O)C[C@H]1C[C@H]2c3cc(NC(=O)C4CCOCC4)ccc3O[C@H]2[C@@H](CO)O1
  23 | 18
- O=C(C[C@@H]1C=C[C@H](NC(=O)Nc2ccccc2F)[C@@H](CO)O1)NCc1ccc(-c2ccccc2)cc1
  7 | 2
- O=C(Nc1ccccc1F)N1CC(=O)N2[C@H](CO)[C@@H](c3ccc(C#Cc4ccccc4)cc3)[C@H]2C1
  -21 | -30
- CCCNC(=O)N1C[C@H](C)[C@H](OC)CN(C)C(=O)c2ccc(NC(=O)CC)cc2OC[C@H]1C
  -4 | 4
- CCCC(=O)Nc1ccc2c(c1)C(=O)N(C)C[C@H](OC)[C@@H](C)CN[C@@H](C)CO2
  -1 | 3
- CCCNC(=O)C[C@H]1CC[C@@H]2[C@H](COC[C@@H](O)CN2C(=O)CC)O1
  2 | 6

# Exported tab-delimited: part of the list above.
SMILES	Vaccinia inh Venus	Vaccinia inh
Cc1noc(C)c1NC(=O)N(C)C[C@@H]1Oc2c(NC(=O)Nc3ccc(F)cc3)cccc2C(=O)N([C@@H](C)CO)C[C@H]1C	-1	3
COc1ccccc1CNC(=O)C[C@H]1C[C@H]2c3cc(NC(=O)C4CCOCC4)ccc3O[C@H]2[C@@H](CO)O1	23	18
C[C@H](O)C#Cc1cnc2c(c1)C(=O)N([C@H](C)CO)C[C@H](C)[C@H](CN(C)C(=O)CN1CCOCC1)O2	12	13
Cc1cc(C(=O)Nc2cccc3c2O[C@@H](CN(C)Cc2ccc(C(=O)O)cc2)[C@H](C)CN([C@H](C)CO)C3=O)n(C)n1	4	10

# The list is partial; count on the stated rates, not on these rows.
